# High-throughput results: PubChem, several laboratories
# LANA-H2B inh – blocks KSHV LANA binding to histone H2A/H2B; Q9QR71; cell-free LANA-H2A/H2B peptide, fluorescence polarization; inhibition, % (test concentration not listed); 320,000 compounds, 0.6% hits; AID 2629; in the data active = inhibition mostly above about 10%, no sharp cut-off; inactive = mostly below about 6.7%;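 note: stock transfer was 7.5 nL into about 10 µL; 0% = median of vehicle wells and 100% = median of positive control wells; one replicate is shown; the record names a cut of 25% in any replicate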
# Target sequence (Q9QR71 whole entry, looked up): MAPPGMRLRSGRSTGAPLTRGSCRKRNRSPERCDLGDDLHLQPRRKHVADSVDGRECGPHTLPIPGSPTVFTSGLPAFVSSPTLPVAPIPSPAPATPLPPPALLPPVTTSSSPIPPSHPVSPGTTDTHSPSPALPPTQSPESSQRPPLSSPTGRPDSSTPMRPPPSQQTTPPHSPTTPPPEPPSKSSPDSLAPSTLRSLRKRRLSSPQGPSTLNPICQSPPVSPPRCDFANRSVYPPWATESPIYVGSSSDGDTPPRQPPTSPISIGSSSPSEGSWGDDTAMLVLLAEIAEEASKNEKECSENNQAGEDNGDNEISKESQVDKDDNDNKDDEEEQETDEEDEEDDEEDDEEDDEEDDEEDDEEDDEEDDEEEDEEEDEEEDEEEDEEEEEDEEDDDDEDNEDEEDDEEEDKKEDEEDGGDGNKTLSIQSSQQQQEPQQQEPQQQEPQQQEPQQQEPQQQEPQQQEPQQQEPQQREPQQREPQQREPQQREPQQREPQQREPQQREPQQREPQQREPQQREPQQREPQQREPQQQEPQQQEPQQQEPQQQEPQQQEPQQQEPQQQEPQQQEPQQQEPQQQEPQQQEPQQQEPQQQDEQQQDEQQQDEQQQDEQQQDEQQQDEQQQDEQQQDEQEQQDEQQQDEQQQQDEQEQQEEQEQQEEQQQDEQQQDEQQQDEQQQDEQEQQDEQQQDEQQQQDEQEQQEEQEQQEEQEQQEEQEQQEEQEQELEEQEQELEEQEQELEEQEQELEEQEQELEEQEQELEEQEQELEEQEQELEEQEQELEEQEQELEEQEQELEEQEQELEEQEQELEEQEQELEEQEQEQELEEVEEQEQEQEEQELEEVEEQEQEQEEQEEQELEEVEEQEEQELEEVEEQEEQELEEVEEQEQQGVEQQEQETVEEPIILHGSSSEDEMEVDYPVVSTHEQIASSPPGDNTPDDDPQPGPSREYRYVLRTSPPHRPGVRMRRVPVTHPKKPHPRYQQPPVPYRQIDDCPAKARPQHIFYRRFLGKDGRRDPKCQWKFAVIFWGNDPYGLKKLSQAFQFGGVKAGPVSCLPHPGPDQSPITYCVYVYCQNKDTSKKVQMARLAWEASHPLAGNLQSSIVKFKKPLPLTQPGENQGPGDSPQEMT
# Ecoli rRNA inh – inhibitors of bacterial rRNA selective over humanized ribosomes. E. coli WT GFP vs humanized-ribosome RFP mutants, fluorescence, 24 h; active compounds read low; DMSO median 0, no signal -100. AID 720706. GFP signal change (wild-type ribosome), % (no concentration beside the values). 350,000 compounds, 1.6% hits;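 active = significant combined selectivity score with lowered wild-type GFP, culture density cut under 30%, mutant RFP and density less affected; inactive = any of these conditions unmet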; note: one replicate is shown; some compounds called inactive have numbers as strong as hits
# Beta cell apopt – blocks beta cell apoptosis. INS-1E cytokine-induced death, ATP luminescence, 48 h; percent of positive-control rescue, neutral wells zero. AID 435005. 300,000 compounds, 0.8% hits. protection from apoptosis, % (concentration not given with the values);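 active = all replicates at 75% or more, or half of them and the mean; inconclusive = half reach 75% but not the mean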;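 note: 0% = cytokine-treated negative control wells and 100% = positive control rescue; higher means more ATP so stronger rescue from cytokine killing; wells of about 40 µL received 100 nL stock; the first replicate is given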
# Calb FLC – affects C. albicans growth with fluconazole | C. albicans CaCi-2 (fluconazole-resistant clinical isolate) + fluconazole, Alamar Blue growth, 48 h | 300,000 compounds, 0.57% hits | growth inhibition, % (no concentration beside the values) | AID 1979;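 active = most replicates above 75%; inconclusive = exactly half above 75%; inactive = most below 75%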;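 note: all wells also contain fluconazole at 8 µg/ml as a sub-toxic cotreatment; 0% = median of DMSO wells and 100% = median of geldanamycin control wells; wells of about 8 µL received 7.5 nL stock; the first replicate is given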
# Bfl-1 A1 inh – inhibitors of the anti-apoptotic protein A1, read as caspase activation | MEF A1-2A-BIM cells, Caspase-Glo 3/7 luminescence, 3 h; percent of clofoctol response, vehicle zero | caspase activation, % (concentration not given with the values) | 330,000 compounds, 0.066% hits;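 active = over half of replicate activation scores above 10%, or exactly half above 10 with the replicate mean above 10; inconclusive = replicate mean below 10 yet half the replicates above 10; inactive = over half of replicates below 10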;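 note: wells of about 30 µL received 50 nL stock; many hits fall short of the cut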
# ALR inh – inhibitors of human sulfhydryl oxidase ALR; P55789; purified ALR, DTT oxidation, H2O2 HRP-luminol luminescence; inhibition, % (concentration not given with the values); 290,000 compounds, 3.8% hits;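 active = mean and each replicate at 75% or more; inconclusive = only one of the two met; inactive = neither met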;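 note: stock transfer was 7.5 nL into about 7.5 µL; 0% = neutral wells and 100% = wells with inactivated enzyme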
# B2AR ag – activates human beta-2 adrenergic receptor causing internalization; Am2.2-beta2AR cells, FAP receptor internalization, flow cytometry; reference of the scale not given here; response, % (concentration not given with the values); 340,000 compounds, 0.43% hits;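 active = response above a set limit, near 3 SD of response in nonfluorescent compounds, cut at about 42% in these data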;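 note: stock transfer was 100 nL into about 11 µL; a reference agonist was the positive control; negative values mostly stem from fluorescent compounds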
# T cruzi inh – blocks replication of Trypanosoma cruzi; T. cruzi beta-gal in NIH3T3, luminescence, 90 h; inhibition, % (no concentration beside the values); 300,000 compounds, 1.4% hits; AID 1885;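 active = mean inhibition across valid replicates above about 55%, limit read from the data; inconclusive = mean below that limit but half or more replicates reach it; inactive = mean below it, under half of replicates reach it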;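 note: signal also drops with host cell toxicity which is not excluded here; 0% = plate median of DMSO wells and 100% = zero luminescence signal; higher percent means less beta-gal luminescence so fewer parasites; stock transfer was 50 nL into about 50 µL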
# Ecoli rRNA inh OD600 – also measured in Ecoli rRNA inh; calls as there; OD600 change, %; measured here: OD600 growth;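 optical density of the mix in the first replicate; 0 = DMSO median and -100 = no signal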
# Ecoli rRNA inh RFP – further read-out of Ecoli rRNA inh, marked with its call; RFP signal change, %; measured here: RFP humanized mutant strains;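 first replicate; 0 = DMSO median and -100 = no signal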
# An asterisk follows results filed as active; ? = inconclusive; · = no result given; & = joins results of further samples. A portion of the library. The share of hits here may be higher or lower than overall.
mol	Ecoli rRNA inh OD600	Ecoli rRNA inh RFP	B2AR ag	Beta cell apopt	T cruzi inh	Bfl-1 A1 inh	Calb FLC	Ecoli rRNA inh	LANA-H2B inh	ALR inh
CC1Cc2cc(-c3csc(NC(=O)Cc4cccs4)n3)ccc2N1S(C)(=O)=O (stereo not drawn)	·	·	11	35	-4	0.6	8	·	-3.2	1
O=C(NNC(=O)c1ccc(Cl)c([N+](=O)[O-])c1)c1ccncc1	11	-1.1	0	-1	1	1.2	-10	9	9.0	-6
COc1ccc(NC(=O)c2ccccc2NC(=O)c2cccs2)cc1	4	0.7	8	1	8	-0.4	10	3	1.5	-4
Cn1cnnc1SCc1ccccc1	·	·	8	1	-1	-0.5	-4	·	0.7	-5
COc1ccc(C2=NS(=O)(=O)N(C)C(C(=O)N3CCCCC3C)=C2)cc1 (stereo not drawn)	-18	6.5	-1	-3	-9	0.2	-3	-2	11	-21
O=C(/C=C/c1ccccc1Cl)NCc1ccccc1	·	·	-3	4	12	-0.9	-3	·	0.1	-7
COc1ccc(C(=O)NC2CCN(C(=O)Nc3ccc(F)cc3)CC2)cc1	12	-0.1	2	0	6	0.2	-3	4	0.0	·
COC(=O)c1ccccc1NC(=O)COC(=O)CO/N=C(\C)c1ccc2c(c1)OCO2	9	-0.2	-2	-7	-16	1.1	-4	15	-1.6	2
COc1ccc(C2N(C(=O)CN3CCOCC3)CCN2S(=O)(=O)c2ccccc2)cc1 (stereo not drawn)	·	·	-12	-2	·	-0.8	·	·	-3.6	-7
COc1ccccc1-c1nnc(Sc2nc([N+](=O)[O-])nn2C)o1	·	·	-1	-61	58*	-0.2	-12	·	4.1	-19
CCCCNC(=O)c1ccc2c(c1)C(=O)N(Cc1ccncc1)C2=O	4	-3.0	-9	-2	-3	0.3	-4	6	3.7	-8
COc1cccc(/C=N/N2C(=O)CSC2=S)c1O	-5	1.9	2	-7	-26	-3.2	-3	-3	1.3	98*
CCOC(=O)c1c(NC(=O)c2cc(C)oc2C)sc(C(=O)Nc2ccc(Cl)cc2)c1C	·	·	0	-5	-1	-0.5	-1	·	7.6	-12
Cc1c2n(c3ccccc13)CCN(C)C2	2	5.1	-3	0	-18	-0.2	-7	4	1.9	3
COc1ccccc1CCNC(=O)c1ccc(NC(=O)CC2SC(N3CCCCC3)=NC2=O)cc1 (stereo not drawn)	-16	-0.2	4	2	·	0.1	·	-12	-6.0	·
Cc1nc(NC(=O)CSc2nnc(-c3ccncc3)n2C)sc1C	12	1.0	-1	-5	-6	0.4	-8	8	-0.1	-6
CCCC(=O)C1=C(O)C(c2cccc(Oc3ccccc3)c2)CCC1=O (stereo not drawn)	-76	-21	7	1	-1	-0.8	12	-56	1.6	1
COc1ccc2[nH]c3c(=O)n(/N=C/[C@H]4C(C)C=C(C)CC4C)c(=O)[nH]c3c2c1 (stereo partly drawn)	-2	-2.1	3	5	1	?	12	-4	0.7	-12
O=C(O)Cn1c(=O)cnc2ccccc21	·	·	-4	-2	-20	0.0	1	·	-0.9	-13
COC(=O)c1c(C(=O)OC)c(-c2ccc(F)cc2)n2c1CSC2	-8	-1.0	-1	1	-3	-0.9	13	-1	5.1	99*
COc1ccccc1NC(=O)Cc1nnc(SCC(=O)Nc2ccc(F)cc2F)n1C	7	-0.6	-6	0	-1	-0.1	-2	2	-1.6	·
COC(=O)c1c(NC(=O)CN2CCN(c3ncccn3)CC2)sc(C(N)=O)c1C	7	3.8	5	-6	-1	-0.2	11	4	1.1	-6
O=C(COc1ccc(Cl)cc1)NCCNc1ccc([N+](=O)[O-])cc1	-16	-0.2	7	-4	16	0.5	11	-16	4.4	-4
CC(=O)Cn1ncc(N(C)Cc2ccccc2)c(Cl)c1=O	11	-1.1	-8	-4	1	0.8	-1	13	0.6	-4
O=C(Oc1ccc(Cl)cc1)c1ccc(N2CCOCC2)c([N+](=O)[O-])c1	-9	-11	-2	3	-15	1.2	-4	-13	-2.2	-41
CC(C)NC(=O)Nc1cccc2c1O[C@H](CN(C)S(C)(=O)=O)[C@@H](C)CN([C@H](C)CO)C2=O	3&11	0.4&-0.1	-5	-2	·	0.2	·	6&3	-0.8	·
Cc1cc(C)c2[nH]c(=O)c(CN(Cc3ccccc3)C(=S)NCCCN(C)C)cc2c1	-6	5.9	18	10	59*	1.0	6	-11	6.8	-1
COC(=O)c1ccc(N/C(C)=C/C(=O)c2ccc(C)o2)cc1	18	-7.7	-6	-8	-10	-0.6	-13	19	-2.5	-9
CCc1noc(C)c1C(=O)N1CCCC(CCC(=O)NCc2ccc(F)c(F)c2)C1 (stereo not drawn)	5	4.2	-3	-3	-7	-0.3	-3	12	-4.6	·
Cc1ccc(N(CC(=O)N/N=C/c2cccs2)S(C)(=O)=O)cc1	·	·	5	0	-7	0.5	3	·	3.1	20
CCc1cc(C(=O)NNC(=S)NC(C)c2ccccc2)cs1 (stereo not drawn)	-28	-7.2	-6	-5	14	0.2	-28	-24	-0.9	37
CCN(C(=O)c1cn(C)c(=O)c2cc(OC)c(OC)cc12)c1cc(C)ccc1C	·	·	6	1	-19	-0.7	-8	·	2.0	-33
COc1ccc(N(C(C)C(=O)NCCSCc2cccc(Cl)c2)S(C)(=O)=O)cc1 (stereo not drawn)	-37	-2.9	13	-11	-1	0.1	-1	-26	-3.6	-3
CCc1ccc(N2CCN(S(=O)(=O)CC34CCC(CC3=O)C4(C)C)CC2)cc1 (stereo not drawn)	-4	2.5	12	-2	2	-0.6	-10	1	2.0	-3
CSc1ncc(CN2CCc3c([nH]c4ccccc34)C2C(C)(C)C)cn1 (stereo not drawn)	13	0.7	0	·	21	0.0	8	15	-1.2	3
O=C(COC(=O)c1nc(Cl)ccc1Cl)NC1CCCCCC1	2	1.7	5	-6	1	-0.3	1	4	0.1	0
Cn1c(=O)c2c(SCc3ccccc3)nc(C3CC3)nc2n(C)c1=O	3	2.4	-4	7	18	-4.9	-6	3	1.2	0
COc1ccc(/C=C/C(=O)NC(=S)NN2CCCCC2c2cccnc2)cc1 (stereo not drawn)	·	·	-6	-11	42	0.3	-8	·	-2.3	?
N#Cc1ccc(CSc2nc(N)cc(N)n2)cc1	-3	-5.0	4	-8	-2	0.1	2	-10	-3.3	2
Cc1cc(N2CCN(c3cccc(C(F)(F)F)c3)CC2)n2ncnc2n1	·	·	-5	6	-11	0.9	1	·	-4.0	-3
CC1(NC(=O)c2cccc(S(=O)(=O)N3CCN(c4ccc(F)cc4)CC3)c2)CCS(=O)(=O)C1 (stereo not drawn)	1	1.9	0	2	-3	-0.1	-5	0	-1.9	5
COc1ccc(C(=O)OCC(=O)c2ccc(Br)s2)c(OC)c1	-8	-2.6	9	3	-1	0.4	5	-4	-6.1	0
COc1ccc(NC(=O)c2cc(-c3ccccc3O)n[nH]2)cc1Cl	20	3.6	-7	1	1	-2.8	7	11	-1.3	-4
CC1(c2ccccc2)NC(=O)N(CC(=O)NC(=O)NCc2ccco2)C1=O (stereo not drawn)	·	·	-1	11	-11	0.3	4	·	0.1	2
CC1CCN(c2ccc(C(=O)O)cc2)CC1	·	·	5	-2	-16	0.2	-3	·	-4.8	14
O=C(NNc1c(Cl)cncc1Cl)c1cccs1	5	-1.2	0	-4	-8	1.3	9	-4	-3.9	-3
CC(C)C(NC(=O)c1c(F)cccc1F)C(=O)N1CCN(c2ncccn2)CC1 (stereo not drawn)	24	3.1	-1	-5	·	0.5	·	16	-0.7	-17
C/C(=N\NC(=O)C(c1ccncc1)N1CCOCC1)c1ccc(Br)cc1 (stereo not drawn)	·	·	4	-3	-9	-0.3	-3	·	-10	-2
O=c1ccc(-c2ccccc2)nn1Cc1ccccc1	-37	-1.9	-10	-6	-8	1.3	9	-30	-6.6	·
O=C(c1cc(-c2ccc(Cl)c(Cl)c2)on1)N1CCOCC1	4	13	-7	2	0	-1.6	4	7	0.8	-19
N#C/C(=N\Nc1cc(Cl)cc(Cl)c1)c1nnc2n1CCCCC2	-20	5.6	-22	14	15	0.0	2	-17	3.4	?
COCCCNC(=O)CC1C[C@H](C(=O)N(C(C)C)C(C)C)[C@@]2(C)c3[nH]c4ccccc4c3CCN2C1=O (stereo partly drawn)	2	2.1	0	-2	·	-0.6	·	-4	-46	3
O=C(CSc1nc2ccccc2s1)N/N=C/c1ccco1	·	·	-11	3	-4	0.2	-29	·	1.3	-4
O=C(NCc1ccc(F)cc1)c1cccc2c1C(=O)c1ccc(N3CCOCC3)cc1S2(=O)=O	2	9.5	-1	-6	·	0.4	·	1	1.6	-1
CCCCNC(=O)C1(NC(=O)Nc2ccc(C)cc2)CCCCC1	9	0.8	-1	-3	-11	-0.6	-43	17	-5.7	-4
CCCCNC(=O)N(O)C1N(/N=C/c2ccco2)C(=S)SC1(C)C (stereo not drawn)	11	-1.9	-1	1	·	0.6	·	8	1.7	13
COc1cccc(CN2CCC(C(=O)N3CCN(Cc4ccc5c(c4)OCO5)CC3)CC2)c1	17	7.1	-1	0	9	0.1	5	11	0.2	-4
CC(=O)OCc1c(COC(C)=O)[n+](=O)c2ccccc2n1[O-]	·	·	0	-1	-5	-0.4	27	·	0.4	-31
CN(CCC#N)C(=O)Cn1nc(Cc2ccncc2)c2ccccc2c1=O	14	-1.1	-4	-6	-1	0.2	-7	5	-1.1	-3
CCOc1cc(C(=S)N2CCOCC2)ccc1O	·	·	2	-7	-1	-0.3	-3	·	2.2	3

# Next section:
mol	Ecoli rRNA inh OD600	Ecoli rRNA inh RFP	B2AR ag	Beta cell apopt	T cruzi inh	Bfl-1 A1 inh	Calb FLC	Ecoli rRNA inh	LANA-H2B inh	ALR inh
CC(=O)Nc1ccc(C(=O)OCC(=O)c2ccc(C)c([N+](=O)[O-])c2)cc1	·	·	-3	-7	-14	0.2	-3	·	0.9	-5
COc1cccc2cc(C(N)=O)/c(=N/NC(=O)COc3ccc(Cl)cc3)oc12	·	·	·	1	-14	-0.7	-22	·	·	·
O=C(NCc1ccccc1)C1=C[C@H](c2coc3ccccc3c2=O)C[C@H](OCc2ccc(CO)cc2)O1	-12	7.0	-6	-2	21	1.8	6	-12	5.1	-16
COc1ccc2c(c1O)-c1ccccc1CCN(C)C2	6	-3.3	1	-2	14	-0.5	15	3	-2.4	50
O=C(NCC1CCCO1)c1ccc(Cl)c(S(=O)(=O)N2CCCCC2)c1 (stereo not drawn)	3	-1.3	-3	-5	-5	0.0	32	0	-8.7	2
COc1ccc(C(C(=O)NC2CCCCC2)N(Cc2cccs2)C(=O)Cc2c[nH]c3ccccc23)cc1 (stereo not drawn)	·	·	-2	24	41	-0.4	68	·	-0.2	0
